# VACV Venus inh = vaccinia inhibition (Venus reporter); Vaccinia virus Venus reporter expression, fluorescence; Potency, µM (doses to about 36.5 µM), without a hit: at the highest dose activity change, negative = inhibition, most hits filed as inhibitors; 330,000 tested, 0.46% active; AID 720580; active means well fitted inhibition curve with a large enough effect; inconclusive means small, poorly fitted or top-dose-only effect; inactive means no such curve, though single readings can be large or run the other way; tested in A549 cells; note: nearly all actives have a fitted effect of over 30% in size; inactives centre near -10
# VACV mCherry inh = vaccinia inhibition (mCherry reporter); Vaccinia virus mCherry reporter infection, fluorescence; about a quarter of the inactives have no number; Potency, µM (titrated, usually from 36.5 µM), for the others: top-dose activity change, negative = inhibition, actives largely listed as inhibitors; 310,000 tested, 0.63% active; active = well fitted inhibition curve with a large enough effect; inconclusive = small, poorly fitted or top-dose-only effect; inactive = no such curve, though single readings can be large or run the other way; tested in A549 cells; note: nearly all actives have a fitted effect of over 35% in size; inactives centre near -10
# Numbers without * were called inactive; i = inactive; ? = inconclusive; . = no result given; & = joins results of further samples; [ ] = dose if it differs, or a comment. % is set by controls: 0 for no effect and ±100 for the full control effect; potency is the fitted concentration of half-maximal effect.
no.	Compound	VACV Venus inh	VACV mCherry inh
1	O=C(NNC(=O)c1ccc2c(=O)n3c(nc2c1)CCC3)c1cccc(Cl)c1	-24%	-8%
2	COCCNC(=O)C(c1ccc(OC)cc1)N(CCOC)C(=O)CCC(=O)Nc1nccs1 (configuration not stated)	-10%	i
3	Cc1ccc(Cc2c(C)nn(-c3nc(C)c(C(=O)N4CCCCC4C)s3)c2C)cc1 (configuration not stated)	-6%	-1%
4	O=C(Cc1cccs1)Nc1ccccc1-c1nc2ccccc2[nH]1	?	-7%
5	CC1=C(Sc2nc3ccccc3[nH]2)C(=O)NC(C)(C)C1	-7%	-11%
6	O=C(Cn1cnc2c(oc3ccccc32)c1=O)Nc1ccc(F)cc1F	-11%	-12%
7	COc1ccccc1N1CCN(C(=O)c2cccc(C(=O)N3CCN(c4ccccc4OC)CC3)c2)CC1	-20%	-4%
8	COc1cc(Br)cc2cc(C(=O)N3CCCCC3C)c(=O)oc12 (configuration not stated)	-4%	-8%
9	COC(=O)N1[C@H](C)C=C[C@]1(Cc1ccccc1)C(=O)NCCCNc1ncc(C(F)(F)F)cc1Cl	?	-10%
10	Cc1cccc(N2CCN(C(=O)C(NS(=O)(=O)c3cccs3)c3ccccc3)CC2)c1C (configuration not stated)	-26%	?
11	COc1ccccc1OCCNc1ccc(S(=O)(=O)N2CCCC2)cn1	2%	i
12	COc1ccc(-c2nc3c(n2O)CCc2c-3no[n+]2[O-])cc1	1%	-10%
13	O=S1(=O)CC(N2CC=CC2)CN1Cc1cn(Cc2ccc(Cl)cc2)nn1 (configuration not stated)	0%	i
14	Cc1cccc(N(C)C(=O)Cc2c(C(=O)O)[nH]c3ccccc23)c1	-2%	-7%
15	Cc1nc(-c2cccs2)sc1C(=O)NN	-29%	i
16	O=C(OCc1cc(=O)n2nc(C3CC3)sc2n1)c1ccccc1Cl	-7%	-1%
17	O=c1[nH]c(NCCO)nc2c1C1(CCCCC1)Cc1ccccc1-2	?	.
18	N=C1/C(=C/c2cccn2-c2ccc([N+](=O)[O-])cc2)C(=O)N=C2SC=CN12	-9%	-16%
19	COc1ccc2c(CC(=O)NCC3CCC(C(=O)O)CC3)cc(=O)oc2c1 (configuration not stated)	-12%	.
20	Cc1ccn2c(c1)nc(=O)c1cc(S(=O)(=O)N3CCCCC3)c(Cl)cc12	4%	0%
21	CC(=O)Nc1sc2c(c1CN1CCN(C)CC1)CCCC2	-4%	-6%
22	COc1ccc(NC(=O)C2CCCCN2CC(=O)OCc2ccccc2)cc1OC (configuration not stated)	-29%	.
23	Clc1ncccc1-c1nnn(-c2ccccc2)n1	-1%	i
24	CC(=O)SC(C[N+](=O)[O-])c1cn(C(C)=O)c2ccccc12 (configuration not stated)	-1%	-2%
25	O=C(/C=C/c1cccs1)Nc1ccc(N2CCOCC2)c(S(=O)(=O)Nc2ccccc2Cl)c1	-16%	-28%
26	CN1C(C(=O)NCc2ccc(OC(F)(F)F)cc2)CC2Cn3c(nc4cc(Cl)c(Cl)cc43)C21 (configuration not stated)	-21%	-7%
27	Cc1cccc(N2CCN(C(=O)/C=C/c3cccs3)CC2C)c1 (configuration not stated)	-18%	i
28	Cc1ccc(Cn2ccnc2SCC(=O)NC2CCCC2)cc1	-5%&-12%	-5%
29	Cc1ccc(OCC(=O)OCC(=O)NC2CCS(=O)(=O)C2)cc1C (configuration not stated)	-4%	-12%
30	COc1ccc(C(=O)Oc2cc(C)[nH]c(=O)c2[N+](=O)[O-])c(OC)c1	-26%	i
31	Cc1ccc(CC(=O)Nc2c(C(=O)N3CCN(c4ccccc4F)CC3)oc3ccccc23)cc1	-18%	-7%
32	CCCOc1cccc(CN2CCCCC2c2cccnc2)c1 (configuration not stated)	-15%	-3%
33	CCc1ccc(-c2csc3ncn(CC(=O)NCc4ccco4)c(=O)c23)cc1	-10%	21%
34	Cc1ccc(CN(C)C2CCN(C)CC2)cc1	-11%	i
35	O=C(O)c1cccc(Oc2cccc(Cl)n2)c1	-6%	0%
36	S=c1[nH]nc(COc2ccccc2)n1/N=C/c1ccc(Cl)cc1Cl	-17%	-20%
37	Cc1ccc(N2CC(C(=O)Nc3ncc([N+](=O)[O-])s3)CC2=O)cc1 (configuration not stated)	-27%	-10%
38	Cn1cnnc1SCC(=O)NN(c1ccccc1)c1ccccc1	-13%	-15%
39	Cc1nc(S(=O)(=O)N2CCN(c3ccc(Cl)cc3)CC2)cn1C	3%	-4%
40	Cc1cccc(N2CCN(C3=NC(=O)/C(=C\c4cn[nH]c4-c4ccccc4)S3)CC2)c1	2%	-2%
41	COc1ccc2cc(C(=O)C3CCCN(Cc4ccccn4)C3)ccc2c1 (configuration not stated)	-15%	-16%
42	COc1ccccc1NC(=O)COC(=O)/C=C/c1ccc(OC)c(OC)c1	-5%	i
43	O=C(CCCN1C(=O)c2ccccc2C1=O)NCCN1C(=O)S/C(=C\c2cccs2)C1=O	-4%	-22%
44	O=C(CCc1nnc(-c2ccccc2)o1)NCC1CCN(C2CCCC2)CC1	-1%	-6%
45	Cc1ccc(S(=O)(=O)N2CCN(C(=O)CSc3ccc(Cl)cc3)CC2)cc1	0%	?
46	COc1ccc(CCNC(=O)c2cc(Cl)nc3ccccc23)cc1	-15%	-8%
47	COc1ccc(Nc2nccc(OC)c2C#N)cc1	20%	12%
48	COc1cccc(C(=O)COc2ccccc2N2C(=O)C3C4C=CC(C4)C3C2=O)c1 (configuration not stated)	-3%	-17%

# Part of the list above in order of formula weight, largest number first.
no.	Compound	VACV Venus inh	VACV mCherry inh
43	O=C(CCCN1C(=O)c2ccccc2C1=O)NCCN1C(=O)S/C(=C\c2cccs2)C1=O	-4%	-22%
40	Cc1cccc(N2CCN(C3=NC(=O)/C(=C\c4cn[nH]c4-c4ccccc4)S3)CC2)c1	2%	-2%
48	COc1cccc(C(=O)COc2ccccc2N2C(=O)C3C4C=CC(C4)C3C2=O)c1 (configuration not stated)	-3%	-17%
42	COc1ccccc1NC(=O)COC(=O)/C=C/c1ccc(OC)c(OC)c1	-5%	i
41	COc1ccc2cc(C(=O)C3CCCN(Cc4ccccn4)C3)ccc2c1 (configuration not stated)	-15%	-16%
37	Cc1ccc(N2CC(C(=O)Nc3ncc([N+](=O)[O-])s3)CC2=O)cc1 (configuration not stated)	-27%	-10%

# Remaining list, next part:
no.	Compound	VACV Venus inh	VACV mCherry inh
49	CC(CNc1nc2ccccc2c2nc(-c3ccccc3)nn12)c1ccccc1 (configuration not stated)	1%	0%
50	CC(=O)c1cccc(-c2ccnc3c2CC(C(=O)Nc2cccc(Oc4ccccc4)c2)O3)c1 (configuration not stated)	-30%	?
51	Cc1ccc2cc(CN(Cc3cccs3)Cc3nnnn3CC3CCCO3)c(=O)[nH]c2c1C (configuration not stated)	-19%	-5%
52	CCN1CCN(CC(=O)Nc2nc3ccc(OC)cc3s2)CC1	-24%	-8%[1.46 µM]
53	Cc1cc(N2C(=O)C3CCCN3C2c2cccc(Cl)c2)no1 (configuration not stated)	?	-15%
54	O=C1c2[nH]nc(-c3ccccc3O)c2C(c2ccccc2F)N1Cc1ccncc1 (configuration not stated)	-6%	-3%
55	Cc1ccc(CNC(=O)CSc2ncn[nH]2)cc1	-15%	-23%
56	COCCn1c(SCC(=O)Nc2cc(C)nn2-c2ccccc2)nnc1-c1ccncc1	-2%	-9%
57	CCc1ccc2occ(CC(=O)Nc3nnc(C)s3)c2c1	2%	-2%
58	O=C(CCn1cnnn1)NC1CCCN(Cc2ccccc2F)C1 (configuration not stated)	-16%	i
59	O=C(NCc1ccco1)c1cccc(S(=O)(=O)N2CCN(Cc3ccccc3)CC2)c1	-12%	-16%
60	c1ccc(-c2nnc3n2N=C(c2ccc4c(c2)OCO4)CS3)nc1	-17%	-16%
61	Cc1nc2c(C)cccn2c(=O)c1NC(=O)c1ccc(Br)o1	-11%	-12%
62	COc1ccc(C#Cc2ccc3c(c2)O[C@@H](CN(C)C(=O)Nc2cccc(OC)c2)[C@H](C)CN([C@@H](C)CO)S3(=O)=O)cc1	?	-16%
63	COc1ccc(C2=NN(C(=O)CSc3nc(=O)n4ccc(C)cc4n3)C(c3ccc(C)cc3)C2)cc1 (configuration not stated)	-7%	-12%
64	Cc1ccc(-c2nc(C=Nc3cccc(C)c3)c(O)o2)cc1	-6%	-9%
65	c1ccc(CN2COC3CCCCCC32)cc1 (configuration not stated)	0%	-3%
66	Cc1cccc(-n2ccnc2SCC(=O)Nc2ccc3c(c2)OCO3)c1	-4%	-1%
67	O/C(=C\Sc1nnc(Cc2ccccc2)o1)c1ccc(Br)cc1	-6%	-10%
68	CCN1CCN(c2ccc(S(=O)(=O)N3CCOCC3)cc2NC(=O)CCC(C)C)CC1	-14%	-3%
69	CC(C)c1ccc(NC(=O)C2Cc3c(-c4cccc(F)c4)ccnc3O2)cc1 (configuration not stated)	-4%	-7%
70	Cc1ccc(CN2C(=O)CCC2C(=O)NCCCN2CCCCC2C)cc1 (configuration not stated)	-13%	-17%
71	CCCCN(C(=O)c1ccc(Cl)cc1)C1CC2CCC(C1)N2C (configuration not stated)	-19%	-17%
72	CCOC(=O)c1ccc(-c2ccc(C=O)o2)cc1	-15%	i
73	O=C(CN1CCN(C(=O)N2CCCCC2)CC1)Nc1ccc(F)cc1	-12%	i
74	NS(=O)(=O)c1ccc(-n2nncc2C23CC4CC(CC(C4)C2)C3)cc1	-4%	i
75	CCc1nc(SCC(=O)Nc2nnc(CC)s2)c2c(C)c(C)sc2n1	-14%	-12%
76	Cc1ccccc1OCC(O)CN1CCN(C)CC1 (configuration not stated)	-8%	i
77	NC(=O)CSc1nnc(-c2ccc(S(=O)(=O)N3CCOCC3)cc2)n1Cc1ccccc1	-5%	-5%
78	CCCCN(C(=O)c1cc(-c2ccc(F)cc2)nc2ccccc12)c1c(N)n(CCCC)c(=O)[nH]c1=O	-7%	-15%
79	CC(C)(C)n1nc2c(c1NC(=O)c1ccc(S(=O)(=O)N3CCCC3)cc1)CS(=O)C2 (configuration not stated)	-2%	-10%
80	CC(C)c1ccc(Nc2nc3ccc(C(=O)c4ccccc4)cc3n3cnnc23)cc1	?	?
81	CC(=O)Cn1nnc2sc(-c3ccccc3)cc2c1=O	-3%&-4%	-7%&-9%
82	CC1CCc2c(sc(NC(=O)C3c4ccccc4Oc4ccccc43)c2C#N)C1 (configuration not stated)	-15%	-20%
83	O=[N+]([O-])c1ccccc1OCCN1CCOCC1	3%	-11%
84	Cc1cccc(Cn2c(SCc3ccc(C(=O)NC4CCCCC4)cc3)nc3ccncc32)c1	8%	-18%
85	CCn1cc2nc(SCC(=O)Nc3ccc(OC)c(OC)c3)n(Cc3ccc(Cl)cc3)c(=O)c2n1	-7%	-6%
86	Nc1nc2c(ncn2[C@@H]2O[C@H](CNCC3=Cc4cc(O)ccc4OC3)[C@@H](O)[C@H]2O)c(=O)[nH]1	0%	0%
87	CP(=O)(O)CCCN	-2%&-15%	-20%&-23%
88	CC1(C)C(C=C(Cl)Cl)C1C(=O)NC(O)C(=O)c1ccccc1 (configuration not stated)	-1%	-8%
89	Cc1cc(/C=N/N2CCN(C)CC2)c(C)n1-c1ccccc1F	-2%	?
90	O=C(NCCOC(=O)c1c(F)cccc1Cl)c1c(F)cccc1Cl	-7%	i
91	CCCn1c(N)c(N(CCOC)C(=O)c2cccc(F)c2)c(=O)[nH]c1=O	-5%	-14%
92	CCc1nc2ccc(C(=O)Nc3ccc(OC)c(OC)c3)cn2c1N(C)Cc1ccc(N(C)C)cc1	2%	17%
93	CN(Cc1ccc(F)cc1)Cc1nc(CCc2ccccc2)no1	4%	-12%
94	Cc1cc(S(=O)(=O)N2CCCCC2CCNC(=O)C(=O)NC2CC2)ccc1F (configuration not stated)	-12%	-15%
95	N#C/C(=N\Nc1ccccc1[N+](=O)[O-])C(=N)N1CCCCC1	0%	-24%
96	c1ccc(CNc2ccnc(-c3ccoc3)n2)cc1	26%	15%
97	CC(C)Oc1ccc(CNC(=O)c2ccc(NC(=O)N3CC(C)Sc4ccccc43)cc2)cc1 (configuration not stated)	-23%	-8%
98	CCCC(=O)Nc1sc2c(c1C(=O)OCC)CC(C)(C)OC2	1%	-12%
99	CSc1nnc(C)c(=O)n1COC(=O)c1cc(Cl)ccc1[N+](=O)[O-]	-6%	-28%
100	CC(C)OCCCNc1ncnc2sc3c(c12)CCCC3	-26%	-8%
101	O=C(Cn1c(=O)n(Cc2ccccc2)c(=O)c2cc(Cl)ccc21)NCC1CCCO1 (configuration not stated)	-14%	-12%
102	CCC/C(O)=C1\C(=O)CCCC1=NC(C)C(=O)O (configuration not stated)	-6%	i
103	CN(C)CCN=Cc1c(O)n(-c2cccc(C(F)(F)F)c2)c(=O)[nH]c1=O	-13%	-14%
104	COc1cc(CNCCO)ccc1OCCc1ccccc1	-29%	i
105	O=C(c1cnc2n(c1=O)CCS2)N(c1ccccc1)C1CCCCC1	-1%	i
106	Cc1cc(C)cc(NC(=O)C2CCCCN2S(=O)(=O)c2ccccc2)c1 (configuration not stated)	-16%	?
107	COc1ccc2cc(C3CC(c4cccs4)=NN3C(C)=O)c(Cl)nc2c1 (configuration not stated)	-8%	-13%

# Profiles from above. Values in the order: VACV Venus inh, VACV mCherry inh
# O=C(CCc1nnc(-c2ccccc2)o1)NCC1CCN(C2CCCC2)CC1 reads -1%, -6%
# COc1cc(Br)cc2cc(C(=O)N3CCCCC3C)c(=O)oc12 (configuration not stated) reads -4%, -8%
# CSc1nnc(C)c(=O)n1COC(=O)c1cc(Cl)ccc1[N+](=O)[O-] reads -6%, -28%
# CP(=O)(O)CCCN reads -2%&-15%, -20%&-23%
